# Compound activity (PubChem)
# VACV mCherry inh: qHTS for Stage-Specific Inhibitors of Vaccinia Orthopoxvirus: mCherry Reporter Primary qHTS. AID 720579, 2013. Potency, µM (titrated, usually from 36.5 µM), inactives show at the top dose activity change, negative = inhibition, actives largely listed as inhibitors. Vaccinia virus mCherry reporter infection, fluorescence; about a quarter of the inactives have no number. hit rate 0.63% among 310,000; active = well fitted inhibition curve with a large enough effect; inconclusive = small, poorly fitted or top-dose-only effect; inactive = no such curve, though single readings can be large or run the other way; tested in A549 cells; further: nearly all actives have a fitted effect of over 35% in size; inactives centre near -10
# VACV Venus inh: qHTS for Stage-Specific Inhibitors of Vaccinia Orthopoxvirus: Venus Reporter Primary qHTS; Vaccinia virus Venus reporter expression, fluorescence; Potency, µM (series often up to 36.5 µM), for inactives: at the highest dose activity change, negative = inhibition, actives largely listed as inhibitors; hit rate 0.46% among 330,000; AID 720580, 2013; active means well fitted inhibition curve with a large enough effect; inconclusive means small, poorly fitted or top-dose-only effect; inactive means no such curve, though single readings can be large or run the other way; tested in A549 cells; further: nearly all actives have a fitted effect of over 30% in size; inactives centre near -10
# Starred values were filed as active, the others as inactive; i = inactive; u = inconclusive; x = not tested or not shown; & = joins results of further samples; [ ] = remark or other dose. On the % scale 0 is the no-effect control and ±100 the full control effect; potency means the concentration at half of the fitted maximal effect.
compound | VACV mCherry inh | VACV Venus inh
CC1CCN(c2ccc(C(=O)O)cc2)CC1 | -14% | -2%
Cc1cc(C(=O)NNCc2ccccc2)no1 | i | -17%
CC1(c2ccccc2)NC(=O)N(CC(=O)NC(=O)NCc2ccco2)C1=O (stereo not given) | x | -7%
COc1ccc(NC(=O)c2cc(-c3ccccc3O)n[nH]2)cc1Cl | -9% | 2%
O=C(NCC1CCCO1)c1ccc(Cl)c(S(=O)(=O)N2CCCCC2)c1 (stereo not given) | i | -21%
COc1ccc2c(c1O)-c1ccccc1CCN(C)C2 | 7% | -7%
O=C(NCc1ccccc1)C1=C[C@H](c2coc3ccccc3c2=O)C[C@H](OCc2ccc(CO)cc2)O1 | -10% | -25%
Clc1ccc(COC(Cn2ccnc2)c2ccc(Cl)cc2Cl)cc1 (stereo not given) | -10%&-8% | u
COc1cccc(N2CC(NC(=O)C3CCCCC3)CC2=O)c1 (stereo not given) | -6%[7.34 µM] | -11%[7.34 µM]
COc1cccc(CN2CCC(C(=O)N3CCN(Cc4ccc5c(c4)OCO5)CC3)CC2)c1 | i | -10%
CC(=O)Nc1ccc(C(=O)OCC(=O)c2ccc(C)c([N+](=O)[O-])c2)cc1 | x | -7%
O=C1c2ccccc2[C@@H]2C[C@H](NC34CC5CC(CC(C5)C3)C4)[C@@H](O)CCN12 | 15% | -7%
CCOc1cc(C(=S)N2CCOCC2)ccc1O | x | -3%
COc1ccccc1N1CCN(C(=O)Cn2c(=O)n3nc(-c4ccc(C)cc4)nc3c3ccccc32)CC1 | -5% | -1%
CN(CCC#N)C(=O)Cn1nc(Cc2ccncc2)c2ccccc2c1=O | 26% | -1%
CCOC(=O)c1ccccc1NC(=O)Cn1c2ncccc2c(=O)n1-c1ccccc1 | -2% | 7%
O=C(NC1CCCCC1)C(c1ccc2ncccc2c1)N(Cc1cccs1)C(=O)c1cccs1 (stereo not given) | -9% | -5%
COc1ccc(/C=C(\NC(=O)c2ccccc2)C(=O)NCc2cccnc2)cc1 | i | -1%
O=C(CCCCCN1C(=O)c2cccc3cccc(c23)C1=O)NCCCO | -17% | -14%
CC(OC(=O)c1ccc2noc(-c3ccccc3)c2c1)C(N)=O (stereo not given) | i | -1%
CCOC(=O)Cc1csc(NC(=O)c2cc(OC)cc(OC)c2)n1 | -11% | -20%
CCOC(=O)N1CCN(C(=O)C2CCN(S(=O)(=O)c3ccc(F)cc3)CC2)CC1 | -10% | -2%
O=S(=O)(c1ccccc1)N1CCN(CCOc2ccc(F)cc2)CC1 | -13% | -12%
COc1cc(NC(=O)COCc2cc(-c3ccc4c(c3)OCO4)on2)cc(OC)c1 | -10% | -7%
O=C1CC(O)(C(F)F)Oc2ccc3ccccc3c21 (stereo not given) | -8% | -12%
CCc1ccccc1Nc1nn2c(=O)c3ccc(C(=O)NCc4ccccc4OC)cc3nc2s1 | -26% | -13%
COc1ccc(-c2csc(NC(C)c3nc4cc(Cl)c(Cl)cc4n3CCCO)n2)cc1 (stereo not given) | u | u
Cc1ccc(COCCN2CCN(S(=O)(=O)c3ccc(C)cc3)CCC2=O)cc1 | u | -22%
O=C(CSc1nncn1-c1ccccc1)Nc1ccc(N2CCOCC2)cc1 | -15% | 3%
Cc1ccccc1NC(=O)CSc1cn(CC(=O)N2CCCCCC2)c2ccccc12 | -11% | -6%

compound | VACV mCherry inh | VACV Venus inh
O=C(COC(=O)C1CCN(S(=O)(=O)c2cccs2)CC1)c1ccc2c(c1)OCCO2 | 1% | 12%
S=c1[nH]nc(COc2ccccc2)n1/N=C/c1ccc(Br)s1 | -11% | -6%
COc1ccc(S(=O)(=O)N(CC(=O)NC2CC2)Cc2ccccc2)cc1 | -18% | -3%
COc1cccc(/C=C/c2cnc3ccccc3n2)c1OC | -23% | 52%[activator]
CCCC(=O)NNC(=O)c1c(O)c2ccccc2[nH]c1=O | -12% | -3%
O=C(NC1CC1)C1=C[C@@H](c2ccc(C(F)(F)F)cc2)C[C@@H](OCCCCO)O1 | -3% | -26%
COc1ccc(CCNc2nc(-c3cccnc3)cs2)cc1OC | -7% | -10%
O=C(NCCN1CCCCCC1)C1CCC(CNS(=O)(=O)c2cccc3cccnc23)CC1 (stereo not given) | 9% | -9%
N#Cc1ccc(C(=O)CSc2n[nH]c(=O)n2Cc2ccco2)cc1 | i | -6%
CC(C)NC(=O)COc1ccc(Cl)cc1Cl | -22% | -19%
Cc1ccc(OCCSc2cc(C)nc(N)n2)cc1 | i[1.46 µM] | -12%
CCN(CC)c1ccc(/C=N/Nc2nc(C)cc(C)n2)cc1 | u | u
COc1ccc(NC(=O)CN2C(=O)CSC(C)C2=O)cc1 (stereo not given) | -15% | 0%
C/C(=N\Nc1ccccc1)c1c(O)n(-c2ccccc2)c(=O)[nH]c1=O | u | -13%
COC(=O)Nc1ccc(S(=O)(=O)N2CCN(C)CC2)cc1 | x | -11%
CNC(=S)NNC(=O)c1ccc(=O)n(Cc2cccc(C(F)(F)F)c2)c1 | -12% | -13%
O=C1NC2(CCCCC2)CO1 | -24% | 1%
CN(C(=O)COC(=O)COc1ccccc1Cc1ccccc1)c1ccccc1 | -7% | -2%
Nc1c(C(=O)O)cnn1-c1ccccc1 | -7% | -11%
Cc1ccc2c(c1)C1C[N+](C)(CC(=O)c3ccccc3)CCC1N2C(=O)c1ccccc1Cl (stereo not given) | i | -3%
COc1ccc(-c2oc(=O)c3cc(OC)c(OC)cc3c2/C=C/c2ccc(OC(C)=O)cc2)cc1 | i | -23%
CCS(=O)(=O)c1nc(S(=O)(=O)c2ccc(Cl)cc2)c(NCc2ccccc2Cl)s1 | -11% | -8%
Cc1cc(Br)ccc1OCCCCNC(C)(C)C | u | -23%
O=C(COC(=O)C1(c2ccc(F)cc2)CCCC1)N1CCc2ccccc21 | -16% | -14%
CCCSc1nc(N)c2c3c(sc2n1)CN(C)CC3 | x | u
O=C1c2ccccc2N2C(=O)c3ccccc3C2N1Cc1ccccc1 (stereo not given) | i | -2%
CCOC(=O)c1cc(NC(=O)c2ccc(F)cc2)c(=O)n2c1oc1ccc(Cl)cc12 | -20% | -7%
O=C(c1cnn(-c2nc3ccccc3s2)c1)c1ccccc1O | -8% | -3%
CCOC(=O)C1CCCCN1C(=O)c1cc2ccc(OC)cc2c2cc(OC)c(OC)cc12 (stereo not given) | -8% | -26%
O=C(Nc1ccc(F)cc1F)c1cccn(Cc2ccccc2)c1=O | i | -9%

compound | VACV mCherry inh | VACV Venus inh
COc1ccccc1N1CCN(C(=O)CSc2nnc(-c3ccoc3C)o2)CC1 | -11% | -10%
CC(OC(=O)Cc1coc2cc3c(cc12)CCC3)C(=O)NC(N)=O (stereo not given) | -11% | -7%
CCOC(=O)C(C)S(=O)(=O)c1ccc(C(F)(F)F)cn1 (stereo not given) | x | -5%
CC(C)=CCc1c(O)cc2oc3c(CC=C(C)C)c(O)c(O)c(CC=C(C)C)c3c(=O)c2c1O | u | u
Nc1ncn[nH]1 | -6%&-14% | -8%&-11%
Cc1cc(S(=O)(=O)N2CCCC(N3CCOCC3)C2)c(C)cc1Cl (stereo not given) | -2% | -8%
COc1cc2c(cc1NC(=O)c1ccco1)CCCC2 | i | -17%
O=C(CN1C(=O)NC2(CCCCC2)C1=O)NCC(=O)Nc1ccc(F)c(F)c1 | -1% | -17%
COc1ccccc1-n1c(=O)[nH]c2c(C(N)=O)nc(CC(C)C)nc21 | -16% | -10%
COc1cc(Cl)ccc1OCc1cc(C(=O)NCc2cc(C(C)C)no2)no1 | -2% | -14%
Cc1[nH]c2ccccc2c1/C=N/n1cnnc1 | -5% | -7%
CCN1C(Nc2ccccc2)=NC[C@@H]1Cc1ccccc1 | -2% | -9%
COc1ccc(-c2c(-c3cc(OC)cc(OC)c3)sc3ccc(OC)cc23)cc1 | -6% | -8%
Cc1ccc(C(=O)Nc2cccc(Oc3ccccc3)c2)o1 | x | u
Cc1cc(Cl)ccc1C(=O)C1CCCN(Cc2ccon2)C1 (stereo not given) | i | -10%
COc1cc(C(=O)NNC(=O)CN2C(=O)NC(C)(c3ccc(C)cc3)C2=O)cc(OC)c1OC (stereo not given) | -13% | -8%
O=C(c1cnn2c(C(F)(F)F)cc(-c3ccc(F)cc3)nc12)N1CCc2ccccc2C1 | i | -7%
Cc1cccc(NC(=O)c2ccc(OC3CSC3)cc2)c1 | -18% | -9%
O=C1CCC(C(=O)N2CCSCC2)CN1CCc1cccc(F)c1 (stereo not given) | -19% | -15%
Cc1cc(/C=C/c2cccc3sc(C)[n+](CCCCI)c23)ccc1N(CCCl)CCCl | 54%[activator] | 372%[activator]
CCOc1ccc(C(=O)N2CCc3ccccc32)cc1OCC | -4% | -11%
O=C(NCC1CCCO1)c1cc2c([nH]c3ccccc32)c(-c2ccc(F)cc2)n1 (stereo not given) | u | -25%
O=C(COc1ccc2ccccc2c1)Nc1ccc(S(=O)(=O)N2CCCCCC2)cc1 | -24% | u
O=C(Oc1c(CN2CCOCC2)cc(Cl)c2cccnc12)c1cccs1 | u | u
Cc1cc(C)n(-c2nc(NCCCN(C)C)c3c4c(sc3n2)COC(C)(C)C4)n1 | u | u
CCN(CC)S(=O)(=O)c1ccc(N2CCCC2)c(NC(=O)c2ccc([N+](=O)[O-])o2)c1 | 14µM* | u
CNC(=O)NC(=O)C(C)OC(=O)c1oc2ccccc2c1CSc1ccc(Cl)cc1 (stereo not given) | -1% | 9%
COc1ccc(-c2csc3ncnc(N4CCN(S(=O)(=O)c5ccccc5C#N)CC4)c23)cc1 | i | -5%
Cn1c(C(O)C(O)c2ccccc2)nc2ccccc21 (stereo not given) | -17% | -6%
CCCCN(C)c1c(C)nc2ccc(C(=O)NCCCn3ccnc3)cn12 | 11% | 3%

# Reformatted as labelled records: four of the compounds above
CCN(CC)S(=O)(=O)c1ccc(N2CCCC2)c(NC(=O)c2ccc([N+](=O)[O-])o2)c1
  VACV mCherry inh: 14µM* | VACV Venus inh: u

CNC(=O)NC(=O)C(C)OC(=O)c1oc2ccccc2c1CSc1ccc(Cl)cc1 (stereo not given)
  VACV mCherry inh: -1% | VACV Venus inh: 9%

COc1ccc(-c2csc3ncnc(N4CCN(S(=O)(=O)c5ccccc5C#N)CC4)c23)cc1
  VACV mCherry inh: i | VACV Venus inh: -5%

Cn1c(C(O)C(O)c2ccccc2)nc2ccccc21 (stereo not given)
  VACV mCherry inh: -17% | VACV Venus inh: -6%

# The list goes on.
compound | VACV mCherry inh | VACV Venus inh
Cc1cccc(NC(=O)CS(=O)(=O)c2cn(C)c3ccccc23)c1C | -16% | -15%
COc1cn(CC(=O)Nc2c(C)cc(C)cc2C)c(CN2CCCCC2)cc1=O | -6% | -14%
Cc1ccc(NC(=O)Cn2c(=O)n(Cc3ccco3)c(=O)c3oc4ccccc4c32)cc1C | u | -22%
COc1ccc(NC(C)=O)cc1S(=O)(=O)N1CCN(Cc2cccs2)CC1 | -6% | -7%
CC(=O)N1c2ccc(C)cc2Sc2c1ccc1ccccc21 | -17% | -7%
O=[N+]([O-])c1ccc2nc(-c3ccccc3[N+](=O)[O-])[nH]c2c1 | -30% | -10%
O=C1c2ccccc2OCOc2ccccc21 | -13% | 0%
Cc1ccc(OCC(=O)N(C)CC(=O)N(CC(C)C)c2c(N)n(CC(C)C)c(=O)[nH]c2=O)c(C)c1 | i | -11%
O=C(CC(NC(=O)c1ccccc1)c1ccccc1)Nc1cccc2ccccc12 (stereo not given) | -14% | -4%
CCCCOc1ccc(CSc2nc(C)[nH]c2[N+](=O)[O-])cc1[N+](=O)[O-] | i | -19%
N#Cc1ccc(Oc2nc(C#N)cc(-c3ccccc3)n2)cc1 | -10% | -21%
O=C(OCc1cn([C@@H]2C[C@H](c3ccc(Cl)cc3)N(C(=O)c3cccs3)C[C@H]2O)nn1)c1ccccc1 | -4% | -19%
COc1ccc(NC(=O)Nc2ccc3c(c2)CC(=O)N([C@H](C)CO)C[C@H](C)[C@H](CN(C)Cc2ccc(C(=O)O)cc2)O3)cc1 | -25% | -8%
O=C(NCc1ccc2c(c1)OCO2)C1CCN(S(=O)(=O)c2cccc3nsnc23)CC1 | -18% | -9%
O=C1OCC(CO)(CO)N=C1NNc1ccccc1Cl | -15% | 13%
CCCCn1c(N)c(N(Cc2ccccc2)C(=O)COc2ccccc2F)c(=O)[nH]c1=O | i | -8%
CN(C)c1ccc(C(=S)N2CCCCC2)cc1Br | -11% | -13%
CC1CCCCC12NC(=O)N(CC(=O)N1CCN(S(=O)(=O)c3ccc(Cl)s3)CC1)C2=O (stereo not given) | -3% | u
COC(=O)c1ccc(NC(=S)Nc2ccc3ccccc3c2)cc1 | x | -12%
CC(C)(C)NC(=O)C(c1ccc(-c2ccccc2)cc1)N(C[C@H]1CC[C@@H]([C@@H]2CC[C@H](CO)O2)O1)C(=O)c1ccc(C(C)(C)C)cc1 (stereo not given in full) | -22% | u
O=S(=O)(c1ccc(C2=CSC3=NCCN23)cc1)N1CCOCC1 | x | u
NC(=NCc1ccccc1)c1cccc([N+](=O)[O-])c1 | u | 4%

# Compound profiles, as listed above. Values in the order: VACV mCherry inh, VACV Venus inh
# CC1CCCCC12NC(=O)N(CC(=O)N1CCN(S(=O)(=O)c3ccc(Cl)s3)CC1)C2=O (stereo not given) in the list: -3%, u
# COc1cn(CC(=O)Nc2c(C)cc(C)cc2C)c(CN2CCCCC2)cc1=O in the list: -6%, -14%
